Arbovirus anti – antivirals against arbovirus infection | arbovirus infection cell-based antiviral screen | inhibition, % at 10 µM | 0.37% of 200,000 active;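 active = inhibition from about 30%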;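 also: bluetongue infection of BSR cells; cell survival read as ATP light after 72 h; 0% = infected wells without compound and 100% = uninfected wells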
Mtb bLac sens – beta-lactam sensitization of Mtb H37Rv; 0.27% of 330,000 active; AID 434955; M. tuberculosis H37Rv growth with meropenem, percent inhibition; hits of this screen are not shown here; inhibition, % at 25 µM;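 active = about 74% or more and at least 40 points above the plate without the antibiotic, then above 30% in a dose series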;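 also: growth measured after seven days incubation then overnight dye step; 0% = bacteria only wells and 100% = bacteria with antibiotic; twin plates without the antibiotic show which effects depend on it; some results filed as inactive read as strong as hits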
Mtb H37Rv – M. tuberculosis H37Rv growth inhibitors, H37Rv strain (AID 1626); 0.95% of 220,000 active; inhibition, % at 10 µM; hits with a dose series show IC50 in µM; M. tuberculosis H37Rv growth inhibition; higher % means a stronger effect;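 active = confirmed in a dose series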;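 also: bacteria incubated seven days before Alamar blue readout; 0% = bacteria only wells and 100% = bacteria with antibiotic wells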
RecA splice inh – blocks M. tuberculosis RecA intein splicing | P9WHJ3 | cell-free RecA intein splicing, fluorescence | inhibition, %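 (about 9 µM by stock and volumes)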 | 0.75% of 290,000 active | AID 2221; in the data active = inhibition above about 30%;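 also: 0% = vehicle wells and 100% = reference inhibitor control wells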
Target sequence (P9WHJ3 whole entry, looked up, canonical isoform): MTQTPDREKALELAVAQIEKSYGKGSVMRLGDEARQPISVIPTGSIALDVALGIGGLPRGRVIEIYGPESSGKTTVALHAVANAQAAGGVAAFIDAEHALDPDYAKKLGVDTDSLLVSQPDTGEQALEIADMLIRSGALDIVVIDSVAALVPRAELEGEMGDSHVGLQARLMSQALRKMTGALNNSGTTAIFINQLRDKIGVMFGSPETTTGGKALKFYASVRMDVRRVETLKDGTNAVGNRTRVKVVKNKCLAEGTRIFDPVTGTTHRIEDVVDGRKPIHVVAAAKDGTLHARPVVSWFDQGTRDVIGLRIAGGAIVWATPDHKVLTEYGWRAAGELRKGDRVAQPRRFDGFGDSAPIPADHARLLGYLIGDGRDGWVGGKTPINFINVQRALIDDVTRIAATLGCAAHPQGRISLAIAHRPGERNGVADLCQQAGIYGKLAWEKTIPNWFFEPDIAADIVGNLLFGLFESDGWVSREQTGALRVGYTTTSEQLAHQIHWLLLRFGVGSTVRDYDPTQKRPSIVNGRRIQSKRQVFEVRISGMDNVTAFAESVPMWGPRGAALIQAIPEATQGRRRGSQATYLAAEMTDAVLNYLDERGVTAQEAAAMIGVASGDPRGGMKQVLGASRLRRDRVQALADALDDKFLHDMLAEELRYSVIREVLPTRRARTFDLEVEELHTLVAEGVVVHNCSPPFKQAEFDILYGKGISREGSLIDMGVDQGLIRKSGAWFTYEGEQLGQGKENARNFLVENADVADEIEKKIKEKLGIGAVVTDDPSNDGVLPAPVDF
YopH PTP inh – blocks Yersinia enterocolitica YopH tyrosine phosphatase. fluorescence Ex485/Em525. inhibition, %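 (about 10 µM by stock and volumes)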. 0.16% of 140,000 active;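 active = inhibition of 50% or more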;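 also: controls were vehicle for no effect and minimum signal wells for full effect; inactives centre near -20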
Arbovirus anti repeat – second read-out of Arbovirus anti, no call of its own (marks repeat the call); inhibition, %; measured here: 10K subset replicate screen; many hits read low in the repeat;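 first of two repeat runs on a subset; 0% = infected and 100% = uninfected wells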
* = called active by the depositor; / = no result given. This is a subset. The share of hits here may be higher or lower than overall.

SMILES	Arbovirus anti	Mtb bLac sens	Mtb H37Rv	RecA splice inh	YopH PTP inh	others
CCC(C)(C(=O)NC1CCCCC1)N(Cc1cccs1)C(=O)c1ccc(=O)[nH]c1 (stereo not drawn)	14	1	4%	0.1	-8
COc1ccc(NC(=O)c2cc(S(=O)(=O)N3CCOCC3)cs2)cc1	-3	-5	-2%	0.8	/
Cc1c(CCO)c(=O)[nH]n1C(=O)c1ccc(F)cc1	8	4	-6%	-2.6	-51
CCOc1ccc(CCNC(=O)C2CC(=O)N(C3CCCC3)C2)cc1OCC (stereo not drawn)	2	5	-15%	0.7	2
CCOc1ccc(C(=O)c2nc3c(n2O)CCCC3)cc1	10	2	1%	2.5	-36	Arbovirus anti repeat=0
OCCOCC#CCN1CCOCC1	1	-3	/	-0.6	-3
N#C/C(=C\c1ccco1)C(=O)Nn1cnnc1	3	-8	-7%	1.6	/
COCCNP(=O)(c1ccccc1)c1nc2ccccc2s1 (stereo not drawn)	0	-2	/	-1.1	-8
O=C(COc1cccc2ccccc12)NNC(=O)[C@@H]1CCCC[C@@H]1C(=O)O	-7	0	-5%	0.4	-18
COc1ccc(-n2nnnc2SCC(=O)c2cccc(OC)c2)cc1	-11	8	-1%	-0.9	-16
O=C(CCCn1c(=O)c2cccn2c2cccnc21)NCCc1ccc(Cl)cc1	/	7	/	-3.0	/
O=C(COC(=O)c1ccccc1Br)Nc1ccc(F)cc1	3	3	76%	1.2	/
CN(C)C(=O)c1nc2ccc(Cl)cn2c1CN1CCCC(OCc2cccnc2)C1 (stereo not drawn)	3	-2	9%	/	/
Cc1c(Br)c([N+](=O)[O-])nn1CC(=O)Nc1ccc(C(N)=O)cc1	7	-9	0%	-2.0	/
O=C(COC(=O)c1ccc2ccccc2c1)Nc1ncc(C(F)(F)F)cc1Cl	11	3	-2%	-1.9	-26

The last two records of the part above open the next one.
SMILES	Arbovirus anti	Mtb bLac sens	Mtb H37Rv	RecA splice inh	YopH PTP inh	others
Cc1c(Br)c([N+](=O)[O-])nn1CC(=O)Nc1ccc(C(N)=O)cc1	7	-9	0%	-2.0	/
O=C(COC(=O)c1ccc2ccccc2c1)Nc1ncc(C(F)(F)F)cc1Cl	11	3	-2%	-1.9	-26
Cc1ccc(-c2cc(C(=O)N3CCN(c4ncccn4)CC3)c3cc(Br)ccc3n2)o1	-8	-1	-3%	-27	/
O=C1OC(c2ccc(Br)cc2)=N/C1=C\N1CC2CC(C1)c1cccc(=O)n1C2 (stereo not drawn)	/	-5	13%	-1.4	/
CCOC(=O)Cn1c(S(=O)(=O)Cc2ccccc2)nc2ccccc21	7	29	4%	0.2	-29
CCc1cccc(OCC(=O)Nc2c[nH]c(=O)[nH]c2=O)c1	8	6	3%	-0.9	/
Cc1cc(Cl)c(S(=O)(=O)Nc2ccon2)cc1OCC(=O)NC1CCCCC1	8	-7	-12%	-1.6	-45
N#Cc1ccccc1NC(=O)CNc1ccccc1N1CCCCC1	-2	7	-1%	3.8	-17
COc1cc2ncnc(NCc3ccc4c(c3)OCO4)c2cc1OC	/	3	/	-1.5	/
COC(=O)c1cccc(NC(=O)CC2NCCNC2=O)c1 (stereo not drawn)	/	-5	-14%	-4.0	/
CCCS(=O)(=O)c1nc(S(=O)(=O)c2ccc(C)cc2)c(N2CCCC2)s1	-7	-6	2%	-1.5	-45	Arbovirus anti repeat=-5
CCCc1cc(=O)n2[nH]c(C(F)(F)F)nc2n1	-2	10	10%	-1.5	/
O=C(Nc1ccc2c(c1)C(=O)OC2)c1ccc(F)cc1F	/	-2	2%	0.7	/
COc1ccc(N2CCN(CCCNC(=O)C3CCCN(S(=O)(=O)c4cnc[nH]4)C3)CC2)cc1 (stereo not drawn)	-2	-6	-8%	/	-36
COc1ccc(OC)c(NC(=S)NCCN2CCOCC2)c1	6	0	6%	-2.1	2
Cc1cc(=O)oc2cc(OCC(=O)N3CCCc4ccccc43)ccc12	-2	-18	-12%	0.3	-5
CC1(C(=O)NCc2cc(F)cc(C(F)(F)F)c2)C=CC2(CCCCC2)N1C(=O)c1ccccc1 (stereo not drawn)	2	-6	-3%	/	-17
N#Cc1c(NC(=O)c2ccco2)sc2c1CCC2	/	-3	/	-0.2	/
Cc1cc(C)c(S(=O)(=O)N2CCOC2CNC(=O)C(=O)NCc2ccccn2)c(C)c1 (stereo not drawn)	/	-2	/	0.2	/
Cn1c(=O)c2c(-c3ccccc3)n(-n3cnnc3)cc2n(C)c1=O	2	-1	-12%	-20	-34
CC(Cc1n[nH]c(=S)n1N)c1ccccc1 (stereo not drawn)	/	-8	/	0.5	/
Cc1c(NC(=O)c2ccc(-c3ccccc3)cc2)cccc1C(=O)O	/	-6	5%	-1.6	/
CSC(=NS(=O)(=O)c1ccccc1)SC	-3	-2	2%	0.1	-37
CN(C)CCN1C(=O)c2oc3ccccc3c(=O)c2C1c1cccc(Br)c1 (stereo not drawn)	1	-7	-3%	-2.3	-55
CCCc1cnc(N2CCN(S(=O)(=O)c3cccs3)CC2)nc1	/	-2	-7%	-1.8	/
CCOC(=O)c1cnc2nc(N3CCOCC3)nn2c1N	11	7	/	0.3	/
CC1CC2(CCCCC2)Nc2c1ccc1ccccc21 (stereo not drawn)	-1	66	-3%	11	-25
Nc1nonc1C(=Nc1ccc(Br)cc1)NO	6	-3	-5%	0.9	-19
O=C(NNC(=S)Nc1ccc(Cl)cc1)c1ccccc1	/	-6	/	2.5	/
CCOC(=O)C(Cc1ccccc1)NC(=O)CCc1c(C)nc2ncnn2c1C (stereo not drawn)	1	3	-3%	0.9	-44
COc1cc2c(c(OC)c1OC)-c1ccc(NC(=O)c3ccccc3)c(=O)cc1[C@@H](NC(C)=O)CC2	/	47	/	-8.6	/
S=C(c1ccc(-c2ccccc2Cl)o1)N1CCCCC1	-2	3	/	2.2	-9
Cc1cc(C)c2[nH]c(=O)c(CN(Cc3ccco3)C(=S)NCC3CCCO3)cc2c1 (stereo not drawn)	3	2	3%	-0.6	-14
COC(=O)c1ccccc1NC(=O)N1CCCC1	-10	-4	-4%	-4.2	26
Cc1ccc(C)c(NC(=O)CCc2nnc3ccc(N4CCCCC4)nn23)c1	/	3	/	1.8	/
COCCCN1C(=O)C(O)=C(C(=O)c2ccco2)C1c1ccccc1 (stereo not drawn)	-3	-6	-10%	0.6	-28
N#Cc1ccccc1CSc1nc(O)cc(=O)[nH]1	3	-4	-4%	-1.7	-12
O=C(NC1CCCc2ccccc21)c1ccc(CNc2c(N3CCOCC3)c(=O)c2=O)cc1 (stereo not drawn)	4	7	3%	0.8	-7	Arbovirus anti repeat=0
COC(=O)c1ccc(OCCOCCOc2cccc3ccc(C)nc23)cc1	13	5	16%	-1.1	-23
Cc1nn(Cc2ccccc2Cl)c(C)c1NC(=O)c1noc2c1CCCCC2	8	-7	-4%	0.5	-33
O=C(Cc1cccs1)NCc1cc(Cl)cc(Cl)c1	/	3	/	2.0	/
CC(=O)Nn1cc2c(=O)n(C)c(=O)n(C)c2c1	0	1	-5%	0.0	-32	Arbovirus anti repeat=6
N/C(=N\OC(=O)c1cccnc1)c1ccccc1Cl	1	-2	-6%	5.6	/
CC(NC(=O)C12CC3CC(CC(C3)C1)C2)c1ccc(F)cc1 (stereo not drawn)	/	-9	/	-1.3	/
Cn1ccnc1C(=O)c1cccc(Br)c1	/	0	/	0.6	/
O=C(c1ccc(Cl)c(S(=O)(=O)N2CCCC2)c1)N1CCOCC1	/	-4	/	-0.5	/
COC(=O)[C@@H](C)NC(=O)c1ccc2oc(CCc3ccccc3)nc2c1	/	-2	/	0.3	/

Already shown: 23 of the compounds above.
SMILES	Arbovirus anti	Mtb bLac sens	Mtb H37Rv	RecA splice inh	YopH PTP inh	others
CCCc1cnc(N2CCN(S(=O)(=O)c3cccs3)CC2)nc1	/	-2	-7%	-1.8	/
CCOC(=O)c1cnc2nc(N3CCOCC3)nn2c1N	11	7	/	0.3	/
CC1CC2(CCCCC2)Nc2c1ccc1ccccc21 (stereo not drawn)	-1	66	-3%	11	-25
Nc1nonc1C(=Nc1ccc(Br)cc1)NO	6	-3	-5%	0.9	-19
O=C(NNC(=S)Nc1ccc(Cl)cc1)c1ccccc1	/	-6	/	2.5	/
CCOC(=O)C(Cc1ccccc1)NC(=O)CCc1c(C)nc2ncnn2c1C (stereo not drawn)	1	3	-3%	0.9	-44
COc1cc2c(c(OC)c1OC)-c1ccc(NC(=O)c3ccccc3)c(=O)cc1[C@@H](NC(C)=O)CC2	/	47	/	-8.6	/
S=C(c1ccc(-c2ccccc2Cl)o1)N1CCCCC1	-2	3	/	2.2	-9
Cc1cc(C)c2[nH]c(=O)c(CN(Cc3ccco3)C(=S)NCC3CCCO3)cc2c1 (stereo not drawn)	3	2	3%	-0.6	-14
COC(=O)c1ccccc1NC(=O)N1CCCC1	-10	-4	-4%	-4.2	26
Cc1ccc(C)c(NC(=O)CCc2nnc3ccc(N4CCCCC4)nn23)c1	/	3	/	1.8	/
COCCCN1C(=O)C(O)=C(C(=O)c2ccco2)C1c1ccccc1 (stereo not drawn)	-3	-6	-10%	0.6	-28
N#Cc1ccccc1CSc1nc(O)cc(=O)[nH]1	3	-4	-4%	-1.7	-12
O=C(NC1CCCc2ccccc21)c1ccc(CNc2c(N3CCOCC3)c(=O)c2=O)cc1 (stereo not drawn)	4	7	3%	0.8	-7	Arbovirus anti repeat=0
COC(=O)c1ccc(OCCOCCOc2cccc3ccc(C)nc23)cc1	13	5	16%	-1.1	-23
Cc1nn(Cc2ccccc2Cl)c(C)c1NC(=O)c1noc2c1CCCCC2	8	-7	-4%	0.5	-33
O=C(Cc1cccs1)NCc1cc(Cl)cc(Cl)c1	/	3	/	2.0	/
CC(=O)Nn1cc2c(=O)n(C)c(=O)n(C)c2c1	0	1	-5%	0.0	-32	Arbovirus anti repeat=6
N/C(=N\OC(=O)c1cccnc1)c1ccccc1Cl	1	-2	-6%	5.6	/
CC(NC(=O)C12CC3CC(CC(C3)C1)C2)c1ccc(F)cc1 (stereo not drawn)	/	-9	/	-1.3	/
Cn1ccnc1C(=O)c1cccc(Br)c1	/	0	/	0.6	/
O=C(c1ccc(Cl)c(S(=O)(=O)N2CCCC2)c1)N1CCOCC1	/	-4	/	-0.5	/
COC(=O)[C@@H](C)NC(=O)c1ccc2oc(CCc3ccccc3)nc2c1	/	-2	/	0.3	/

New compounds follow:
SMILES	Arbovirus anti	Mtb bLac sens	Mtb H37Rv	RecA splice inh	YopH PTP inh	others
CC(C)c1nnc(NC(=O)CC23CC4CC(CC(C4)C2)C3)s1	/	-6	/	-9.2	/
CCC1C(c2ccccc2)N(C)C(c2ccccc2)CC1(O)c1ccccc1 (stereo not drawn)	-37	99	52%	14	/
O=C(CSc1ccc(-c2ccc(Cl)cc2)nn1)NC1CCCC1	/	-8	/	-0.4	/
CCCc1nc(NCCO)c(C#N)c2c1CCCC2	/	1	2%	4.9	/
NNC(=O)CN1C(=O)Nc2ccc(Br)cc2C1c1ccccc1 (stereo not drawn)	-10	0	-10%	-1.2	-11
Cc1ccc(-c2n[nH]c(=S)c3ccccc23)cc1	19	-4	0%	2.7	/
Cc1cc(C(=O)Nc2ccc3nc(C)sc3c2)c2ccccc2n1	/	4	-2%	-0.9	/
Cc1[nH]c(C)c(S(=O)(=O)Nc2ccccc2Cl)c1C(=O)N1CCCC1	/	-10	/	0.6	/
CN(C)c1ccc(N=Cc2nc(-c3ccccc3)oc2O)cc1	-8	33	-2%	-2.5	-34
Cc1cccc(NC(=O)CSc2ncnc3nc[nH]c23)c1C	12	1	-8%	-0.7	-25
CCN1C(=O)[C@H]2[C@@H](c3ccc(Cl)cc3)N3C(=O)CN(CC4CC4)C(=O)[C@@]3(Cc3ccccc3)[C@H]2C1=O	/	-7	/	-0.6	/
Cc1cc(C(=O)COC(=O)CCc2nc3ccccc3c(=O)[nH]2)c(C)n1CC1CCCO1 (stereo not drawn)	/	-5	2%	1.6	/
CCc1ccc(N2CC(C(=O)OCC(=O)c3c(N)n(CC(C)C)c(=O)n(C)c3=O)CC2=O)cc1 (stereo not drawn)	/	-4	/	-1.7	/
CCN(CC(=O)NCc1cccnc1)S(=O)(=O)c1ccc(OC)cc1	/	-2	/	0.5	/
